Assay outcomes deposited in PubChem BioAssay by Broad Institute.
RanGTP-Impb inh – inhibitors of RanGTP-importin-beta interaction, primary screen, biochemical, FRET, CFP-Ran, YFP-importin-beta, homogeneous; inhibition, % (concentration not given with the values); AID 2216; cell-free CFP-Ran/YFP-importin-beta FRET ratio; 1.1% of 300,000 active;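 active = most replicates above 15%; inconclusive = exactly half above 15%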;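 also: 0% = DMSO wells and 100% = Ran loaded with GDP instead of GTP; wells of about 40 µL received 100 nL stock; the first replicate is given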
Beta cell apopt – beta cell apoptosis inhibition; 0.8% of 300,000 active; INS-1E cytokine-induced death, ATP luminescence, 48 h; percent of positive-control rescue, neutral wells zero; protection from apoptosis, % (no concentration beside the values);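 active = all replicates at 75% or more, or half of them and the mean; inconclusive = half reach 75% but not the mean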;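 also: 0% = cytokine-treated negative control wells and 100% = positive control rescue; higher means more ATP so stronger rescue from cytokine killing; wells of about 40 µL received 100 nL stock; the first replicate is given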
Ecoli rRNA inh – inhibits bacterial ribosomal RNA function over humanized ribosomes; AID 720706; GFP signal change (wild-type ribosome), % (test concentration not listed); 1.6% of 350,000 active; E. coli WT GFP vs humanized-ribosome RFP mutants, fluorescence, 24 h; active compounds read low; DMSO median 0, no signal -100;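 active = significant combined selectivity score with lowered wild-type GFP, culture density cut under 30%, mutant RFP and density less affected; inactive = any of these conditions unmet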; also: one replicate is shown; some compounds called inactive have numbers as strong as hits
AF4-AF9 inh – blocks AF4 peptide binding to human AF9; AID 651704; 0.47% of 350,000 active; AlphaScreen, biotin-AF4 peptide binding to FLAG-AF9; P42568; inhibition, % at 10 µM;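 active = every replicate reaching a set inhibition limit, whatever the replicate mean, cut at about 25% in these data; inconclusive = mean inhibition reaches that limit but some replicates miss it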;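 also: 0% = plate neutral control median and 100% = total signal loss; the record names both 10 and 1 µM as test concentration; the first replicate is given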
Target sequence (P42568 whole entry, looked up): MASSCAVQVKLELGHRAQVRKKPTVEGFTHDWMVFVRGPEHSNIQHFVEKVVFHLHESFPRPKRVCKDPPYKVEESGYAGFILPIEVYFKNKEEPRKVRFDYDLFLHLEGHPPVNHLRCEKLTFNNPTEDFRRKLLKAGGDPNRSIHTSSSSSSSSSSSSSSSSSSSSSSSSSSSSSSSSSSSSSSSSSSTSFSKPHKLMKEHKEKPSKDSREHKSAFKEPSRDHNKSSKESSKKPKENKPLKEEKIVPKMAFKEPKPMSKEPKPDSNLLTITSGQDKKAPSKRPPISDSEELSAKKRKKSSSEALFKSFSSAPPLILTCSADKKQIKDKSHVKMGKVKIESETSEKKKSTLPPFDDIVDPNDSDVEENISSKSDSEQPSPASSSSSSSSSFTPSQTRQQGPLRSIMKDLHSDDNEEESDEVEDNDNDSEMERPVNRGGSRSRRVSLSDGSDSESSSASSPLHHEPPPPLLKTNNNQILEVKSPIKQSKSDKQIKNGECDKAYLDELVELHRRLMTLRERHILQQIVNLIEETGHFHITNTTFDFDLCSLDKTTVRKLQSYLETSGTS
T cruzi repl – blocks replication of Trypanosoma cruzi; inhibition, % (concentration not given with the values); T. cruzi beta-gal in NIH3T3, luminescence, 90 h; AID 1885; 1.4% of 300,000 active;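 active = mean inhibition across valid replicates above about 55%, limit read from the data; inconclusive = mean below that limit but half or more replicates reach it; inactive = mean below it, under half of replicates reach it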;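 also: signal also drops with host cell toxicity which is not excluded here; 0% = plate median of DMSO wells and 100% = zero luminescence signal; higher percent means less beta-gal luminescence so fewer parasites; stock transfer was 50 nL into about 50 µL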
Calb FLC – C. albicans growth modulation with fluconazole. C. albicans CaCi-2 (fluconazole-resistant clinical isolate) + fluconazole, Alamar Blue growth, 48 h. growth inhibition, % (test concentration not listed). 0.57% of 300,000 active. AID 1979;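 active = most replicates above 75%; inconclusive = exactly half above 75%; inactive = most below 75%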;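 also: all wells also contain fluconazole at 8 µg/ml as a sub-toxic cotreatment; 0% = median of DMSO wells and 100% = median of geldanamycin control wells; wells of about 8 µL received 7.5 nL stock; the first replicate is given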
ALR inh – blocks human ALR sulfhydryl oxidase activity. P55789. purified ALR, DTT oxidation, H2O2 HRP-luminol luminescence. inhibition, % (concentration not given with the values). 3.8% of 290,000 active. AID 485317;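 active = mean and each replicate at 75% or more; inconclusive = only one of the two met; inactive = neither met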;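 also: stock transfer was 7.5 nL into about 7.5 µL; 0% = neutral wells and 100% = wells with inactivated enzyme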
FGF22 binding – binders of recombinant human FGF22 by thermal shift; Q9HCT0; SYPRO orange fluorescence; percent of sucrose octasulfate shift, DMSO zero; calls only at 9.99 µM; 1.5% of 340,000 active; AID 651658;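 active = melting point raised past a set limit in the mean and every replicate; inconclusive = no clear call; three in four hits are not shown here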
Target sequence (Q9HCT0 whole entry, looked up): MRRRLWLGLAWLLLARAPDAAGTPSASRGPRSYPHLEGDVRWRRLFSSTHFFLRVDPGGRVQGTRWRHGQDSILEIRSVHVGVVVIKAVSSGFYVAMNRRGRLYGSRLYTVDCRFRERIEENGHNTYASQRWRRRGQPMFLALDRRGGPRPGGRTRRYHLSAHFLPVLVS
Ecoli rRNA inh OD600 – also measured in Ecoli rRNA inh; calls as there; OD600 change, %; measured here: OD600 growth;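 optical density of the mix in the first replicate; 0 = DMSO median and -100 = no signal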
Ecoli rRNA inh RFP – second read-out of Ecoli rRNA inh, no call of its own (marks repeat the call); RFP signal change, %; measured here: RFP humanized mutant strains;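 first replicate; 0 = DMSO median and -100 = no signal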
* marks the source's active call; other numbers are inactive results; i = inactive; u = inconclusive; x = not tested or not shown. These rows are one share of the data; rates above refer to the full screens.

Short keys – A = RanGTP-Impb inh; B = Beta cell apopt; C = Ecoli rRNA inh; D = Ecoli rRNA inh OD600; E = Ecoli rRNA inh RFP; F = AF4-AF9 inh; G = T cruzi repl; H = Calb FLC; I = ALR inh; J = FGF22 binding
> O=C(O)c1ccccc1SCCS(=O)(=O)c1ccc(Cl)cc1Cl
  A = 1.0 | B = -2 | C = -6 | D = 2 | E = 4.5 | F = x | G = -8 | H = 7 | I = 3 | J = x
> COc1ccccc1OCC(=O)Nc1ccccc1C(=O)NCc1cccnc1
  A = 7.4 | B = -1 | C = 3 | D = 5 | E = 0.9 | F = 1.0 | G = 3 | H = 8 | I = -4 | J = i
> CC1CCc2nn(CC(=O)N3CCCCCC3)cc2C1 (stereo not drawn)
  A = 2.9 | B = -9 | C = 9 | D = 6 | E = 0.1 | F = -2.2 | G = 1 | H = -4 | I = 5 | J = i
> COc1ccc(C(=O)OCn2nnc3ccccc3c2=O)cc1
  A = 2.7 | B = -3 | C = 6 | D = 1 | E = -2.7 | F = 1.0 | G = -4 | H = -5 | I = 1 | J = i
> Cc1ccccc1NC(=O)Cn1c(=O)oc2ccccc21
  A = 0.1 | B = 0 | C = 3 | D = 15 | E = 2.2 | F = 1.9 | G = -15 | H = -2 | I = -2 | J = i
> Cc1cccc(Oc2ccc(S(=O)(=O)N3CCCCC3)cc2N)c1
  A = u | B = 1 | C = -24 | D = -36 | E = -8.1 | F = 0.8 | G = -5 | H = 11 | I = 2 | J = i
> c1ccc(-c2csc3nnc(SCc4ccc5c(c4)OCO5)n23)cc1
  A = 0.6 | B = -7 | C = -45 | D = -69 | E = -6.7 | F = -0.1 | G = 25 | H = -21 | I = -16 | J = i
> CCOc1ccc2nc(NC(=O)C(NS(=O)(=O)c3cccc4nsnc34)C(C)C)sc2c1 (stereo not drawn)
  A = -2.1 | B = -4 | C = -3 | D = -15 | E = 3.1 | F = 0.2 | G = 27 | H = 17 | I = x | J = i
> O=C(CN1CCN(Cc2ccccc2)CC1)NC(=O)NCc1ccco1
  A = -3.2 | B = -4 | C = x | D = x | E = x | F = x | G = 11 | H = -7 | I = 2 | J = x
> O=C(CSc1ncccn1)N1CCN(Cc2ccccc2)CC1
  A = -0.9 | B = 1 | C = x | D = x | E = x | F = x | G = -14 | H = -3 | I = -3 | J = x
> CN1CCN(C=NC2=NN(c3cccc(C(F)(F)F)c3)CC2)CC1
  A = 0.4 | B = -3 | C = -3 | D = -4 | E = -7.1 | F = 0.1 | G = 25 | H = -3 | I = 99* | J = i
> COC(=O)c1ccccc1NC(=O)CSc1nnc(C(CO)NC(=O)c2ccccc2Cl)n1C (stereo not drawn)
  A = 3.9 | B = -1 | C = x | D = x | E = x | F = x | G = 1 | H = 6 | I = -1 | J = x
> O=C(O)C1CCN(C(=O)CSc2nc3ccccc3c(=O)n2-c2ccc(Cl)cc2)CC1
  A = 3.0 | B = 1 | C = 4 | D = 2 | E = -0.9 | F = -1.3 | G = -4 | H = -2 | I = -9 | J = i
> FC(F)(F)c1ccc(CSc2nccn2-c2ccccc2)cc1
  A = 2.3 | B = -11 | C = x | D = x | E = x | F = x | G = 8 | H = 1 | I = -29 | J = x
> CC(Oc1ccc(Cl)cc1)C(=O)Nc1ccccc1C(=O)N1CCOCC1 (stereo not drawn)
  A = 0.0 | B = -2 | C = 5 | D = 1 | E = -0.3 | F = -2.0 | G = -3 | H = 1 | I = -7 | J = i
> S=C(NCCc1ccccc1)N1CCn2cccc2C1c1ccncc1 (stereo not drawn)
  A = 2.0 | B = -5 | C = 0 | D = -1 | E = 4.5 | F = 5.3 | G = 23 | H = -4 | I = -6 | J = i
> CCCCn1c(=N)n(CC(O)c2ccccc2)c2ccccc21 (stereo not drawn)
  A = 6.5 | B = -6 | C = 10 | D = -1 | E = -9.6 | F = -3.5 | G = -7 | H = -1 | I = -43 | J = i
> CN=C(Nc1cccnc1)c1cccc(C(F)(F)F)c1
  A = -0.9 | B = -7 | C = 4 | D = 12 | E = -0.9 | F = 0.4 | G = -6 | H = 3 | I = -38 | J = i
> Cc1nc2ccccn2c1C(=O)N/N=C/c1ccc(CNC(=O)C(=O)Nc2ccccc2)o1
  A = -2.5 | B = -3 | C = x | D = x | E = x | F = x | G = -2 | H = 3 | I = 7 | J = x
> O=C(OCC(=O)N(C1CCCCC1)C1CCCCC1)c1ccccc1O
  A = -0.6 | B = 0 | C = 5 | D = 8 | E = 8.3 | F = 1.0 | G = 9 | H = -10 | I = -7 | J = i
> CCC1(c2ccc(F)cc2)NC(=O)N(CC(=O)Nc2ccc3c(c2)OCCO3)C1=O (stereo not drawn)
  A = x | B = -9 | C = 0 | D = 1 | E = 1.9 | F = 1.2 | G = x | H = x | I = 1 | J = i
> N=c1n(CC(=O)c2ccc([N+](=O)[O-])cc2)c2ccccc2n1Cc1ccccc1
  A = 6.3 | B = 15 | C = x | D = x | E = x | F = x | G = 26 | H = -3 | I = 23 | J = x
> CCc1cc(=O)oc2cc3oc(C)c(C)c3cc12
  A = 0.2 | B = -7 | C = -1 | D = -3 | E = -1.0 | F = x | G = -12 | H = u | I = x | J = x
> COCCSc1nnc(NC(=O)CCS(=O)(=O)Cc2ccccc2)s1
  A = -0.7 | B = -21 | C = 4 | D = 5 | E = 1.9 | F = -0.4 | G = -5 | H = 38 | I = -1 | J = i
> CCOc1ccccc1C(=O)NCCCCNC(=O)c1ccccc1OCC
  A = -3.2 | B = x | C = 6 | D = -8 | E = 0.2 | F = -2.8 | G = 18 | H = 3 | I = -5 | J = i
> Cc1ccc(Cl)cc1NC(=O)Nn1cnnc1
  A = -2.0 | B = -2 | C = 1 | D = 12 | E = -0.7 | F = -0.8 | G = 3 | H = 2 | I = -7 | J = i
> C=CCn1c(=O)c(C(=O)Nc2ccccc2C)c(O)c2ccccc21
  A = 1.5 | B = x | C = 4 | D = 10 | E = 4.6 | F = -0.9 | G = -8 | H = -6 | I = x | J = i
> COc1ccc(C(CNS(=O)(=O)c2cccc(F)c2)N2CCCC2)cc1 (stereo not drawn)
  A = x | B = -5 | C = 3 | D = 2 | E = 2.0 | F = 2.6 | G = x | H = x | I = -3 | J = i

A draw from above in order of molar mass, highest first:
Short keys – A = RanGTP-Impb inh; B = Beta cell apopt; C = Ecoli rRNA inh; D = Ecoli rRNA inh OD600; E = Ecoli rRNA inh RFP; F = AF4-AF9 inh; G = T cruzi repl; H = Calb FLC; I = ALR inh; J = FGF22 binding
> Cc1nc2ccccn2c1C(=O)N/N=C/c1ccc(CNC(=O)C(=O)Nc2ccccc2)o1
  A = -2.5 | B = -3 | C = x | D = x | E = x | F = x | G = -2 | H = 3 | I = 7 | J = x
> COc1ccc(C(CNS(=O)(=O)c2cccc(F)c2)N2CCCC2)cc1 (stereo not drawn)
  A = x | B = -5 | C = 3 | D = 2 | E = 2.0 | F = 2.6 | G = x | H = x | I = -3 | J = i
> O=C(CSc1ncccn1)N1CCN(Cc2ccccc2)CC1
  A = -0.9 | B = 1 | C = x | D = x | E = x | F = x | G = -14 | H = -3 | I = -3 | J = x

Random excerpt: five compounds from above.
Short keys – A = RanGTP-Impb inh; B = Beta cell apopt; C = Ecoli rRNA inh; D = Ecoli rRNA inh OD600; E = Ecoli rRNA inh RFP; F = AF4-AF9 inh; G = T cruzi repl; H = Calb FLC; I = ALR inh; J = FGF22 binding
> CCC1(c2ccc(F)cc2)NC(=O)N(CC(=O)Nc2ccc3c(c2)OCCO3)C1=O (stereo not drawn)
  A = x | B = -9 | C = 0 | D = 1 | E = 1.9 | F = 1.2 | G = x | H = x | I = 1 | J = i
> CCOc1ccccc1C(=O)NCCCCNC(=O)c1ccccc1OCC
  A = -3.2 | B = x | C = 6 | D = -8 | E = 0.2 | F = -2.8 | G = 18 | H = 3 | I = -5 | J = i
> COC(=O)c1ccccc1NC(=O)CSc1nnc(C(CO)NC(=O)c2ccccc2Cl)n1C (stereo not drawn)
  A = 3.9 | B = -1 | C = x | D = x | E = x | F = x | G = 1 | H = 6 | I = -1 | J = x
> Cc1cccc(Oc2ccc(S(=O)(=O)N3CCCCC3)cc2N)c1
  A = u | B = 1 | C = -24 | D = -36 | E = -8.1 | F = 0.8 | G = -5 | H = 11 | I = 2 | J = i
> N=c1n(CC(=O)c2ccc([N+](=O)[O-])cc2)c2ccccc2n1Cc1ccccc1
  A = 6.3 | B = 15 | C = x | D = x | E = x | F = x | G = 26 | H = -3 | I = 23 | J = x
